# Bioassay records from PubChem BioAssay.
# CSC inhib – blocks cancer stem cells. actives 1.1% (n = 300,000). inhibition, % at 7.5 µM. cancer stem cell-like cells viability, luminescence;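 active = mean at 75% or more and at least half the replicates too; tested in HMLE shEcad cells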;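 also: 0% = median of negative and 100% = median of positive control wells; the first replicate is given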
# Env fusion inh – inhibitors of HIV Env-mediated cell fusion; HeLa-JRFL Env/CEM21 cell fusion, luciferase; inhibition, % at 12.3 µM; AID 651610; actives 1.1% (n = 360,000);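 active = mean replicate inhibition score of at least 50 and every replicate individually at or above 50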;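 also: 0% = plate neutral controls and 100% = maraviroc near 300 nM; one replicate is shown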
# eIF4H FP inh – inhibitors of RNA binding by human eIF4H. Q15056. eIF4H fluorescence polarization binding assay. inhibition, % at 35 µM. actives 0.94% (n = 290,000). AID 2012;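 active = 50% or more with normal probe brightness, or confirmed in later tests; about a fifth of its hits are not listed in these tables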;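 also: calls also rest on retests at 20 µM and on dose response follow-up; 0% = protein and probe with vehicle and 100% = probe without protein; strong numbers were not always called active; many hits fall short of the cut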
# MT1-MMP act inh – blocks activation of human MT1-MMP; AID 651647; GFP/RFP ratio change, % at 20 µM; P50281; actives 0.061% (n = 360,000); HT1080 RFP-PRO-GFP cells, GFP/RFP ratio fluorescence, overnight; percent of plate control window, DMSO zero;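 active = GFP/RFP ratio change of at least 30% with cell ATP level not reduced by more than half and red fluorescence within 50% of control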; also: strong numbers were not always called active
#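 Compound: 20 µM single dose, 1% DMSO / System: HT1080 RFP-PRO-GFP cells / Controls: DMSO and RFP-L50D-GFP cell wells / Read-out basis: GFP/RFP fluorescence ratio / Schedule: overnight compound exposure at 37 °C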
# PABP FP inh – blocks human PABP binding to poly(A) RNA. fluorescence polarization. actives 1% (n = 290,000). P11940. inhibition, % at 35 µM;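 active = 50% or more with normal probe brightness, or confirmed in later tests; about a fifth of its hits are not listed in these tables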;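 also: calls also rest on retests at 20 µM and on dose response follow-up; controls were probe without protein and protein plus probe with vehicle; some compounds called inactive have numbers as strong as hits; many hits fall short of the cut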
# UUG fidelity – alters start codon recognition fidelity in yeast; S. cerevisiae UUG-firefly luciferase reporter, luminescence/redox ratio; activity score, % at 18.7 µM; actives 0.13% (n = 350,000); AID 602363;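 active = replicate mean at a twofold rise or more, about +100% in these data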;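 also: firefly luciferase made from a UUG start codon reports start codon fidelity; reporter light over untreated wells divided by growth signal over untreated wells; some hits fall short of that in this replicate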
# Rce1 inh – blocks yeast Ras-converting enzyme; Q03530; yeast membranes, quenched prenylated peptide cleavage fluorescence; calls only; actives 0.27% (n = 290,000);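 active = fall in fluorescence gain of 50% or more versus controls, with final raw signal at or below 3038400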;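 also: plate controls were neutral control wells for no effect and wells lacking membranes for full effect; tested at 10 µM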
# Target sequence (Q03530 whole entry, looked up): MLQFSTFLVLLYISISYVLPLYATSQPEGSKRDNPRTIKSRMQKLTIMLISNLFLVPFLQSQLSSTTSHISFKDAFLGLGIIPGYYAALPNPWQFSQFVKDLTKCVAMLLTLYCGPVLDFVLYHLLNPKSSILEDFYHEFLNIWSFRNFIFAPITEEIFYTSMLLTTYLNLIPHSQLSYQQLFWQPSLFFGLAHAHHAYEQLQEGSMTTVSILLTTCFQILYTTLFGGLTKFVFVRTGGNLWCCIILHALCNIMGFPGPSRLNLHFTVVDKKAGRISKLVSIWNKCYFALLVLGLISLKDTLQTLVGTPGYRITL
# eIF4H FP inh retest – second read-out of eIF4H FP inh, no call of its own (marks repeat the call); inhibition, %; compound at 20 µM; confirmation average;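 mean of two retest wells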
# PABP FP inh retest – recorded beside PABP FP inh, whose call it bears; inhibition, %; compound at 20 µM; confirmation repeats;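 mean of two retest wells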
# MT1-MMP act inh RFP – also measured in MT1-MMP act inh; calls as there; RFP signal change, %; measured here: RFP expression control read;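 0 = vehicle wells; hits needed this value within 50% of zero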
# Active calls of the source: *; i = inactive; nt = no result given. An excerpt, so the mix of outcomes need not match the whole.
# A first look:
SMILES,CSC inhib,Env fusion inh,eIF4H FP inh,MT1-MMP act inh,MT1-MMP act inh RFP,PABP FP inh,UUG fidelity,Rce1 inh,others
COc1ccc(Nc2cc(C(=O)NCCCN3CCN(C)CC3)c3ccccc3n2)cc1,2,nt,-3,7,0,-1,-25,i,
COC(=O)c1oc2ccccc2c1NC(=O)CN1CCCC1,-17,-41,8,1,-2,-6,nt,i,
O=C(NCC(=O)N(c1cccc(F)c1)C(C(=O)NC1CCCC1)c1ccncc1)c1ccco1 (configuration not stated),4,2,-7,0,1,0,8,i,

# The whole of this part (from the top)
SMILES,CSC inhib,Env fusion inh,eIF4H FP inh,MT1-MMP act inh,MT1-MMP act inh RFP,PABP FP inh,UUG fidelity,Rce1 inh,others
COc1ccc(Nc2cc(C(=O)NCCCN3CCN(C)CC3)c3ccccc3n2)cc1,2,nt,-3,7,0,-1,-25,i,
COC(=O)c1oc2ccccc2c1NC(=O)CN1CCCC1,-17,-41,8,1,-2,-6,nt,i,
O=C(NCC(=O)N(c1cccc(F)c1)C(C(=O)NC1CCCC1)c1ccncc1)c1ccco1 (configuration not stated),4,2,-7,0,1,0,8,i,
c1ccc2[nH]c(CSc3nccs3)nc2c1,7,-17,-1,-3,0,0,-12,i,
c1ccc(COn2nnc3ccccc32)c(COn2nnc3ccccc32)c1,-15,nt,7,-4,-7,4,-15,i,
N#CCCN(CCC#N)S(=O)(=O)c1ccc(C(=O)Nc2nnc(C3=COCCO3)o2)cc1,-10,17,82*,1,0,9.6*,-20,i,eIF4H FP inh retest=98*;PABP FP inh retest=74*
Cc1cccc(Nc2nc(N)nc(CN3CCC(C(N)=O)CC3)n2)c1C,-12,nt,0,-1,3,5,-27,i,
COc1ccc(C(=O)CN2CCN(c3ccc(F)cc3)CC2)cc1,8,0,4,2,-2,2,-6,i,
O=C(NCCCn1ccnc1)/C(=C\c1cccs1)NC(=O)c1cccs1,4,10,0,-4,-4,52,-1,i,eIF4H FP inh retest=-20;PABP FP inh retest=-3
O=C(Nc1ccc(F)cc1)N1CCCN(c2nccc(C(F)(F)F)n2)CC1,-8,32,-1,3,-4,4,nt,i,
Cc1cnc(NC(=O)CSc2nnc(-c3ccccc3)o2)s1,14,-138,2,5,5,4,-17,i,
COc1ccc(Nc2nc(-c3ccccc3F)nc3ccccc23)cc1OC,11,12,-1,-4,-7,11,-6,i,
CC(C)(C)NC(=O)C(=O)NNC(=O)c1cccc(F)c1,nt,-5,14,-5,1,-10,nt,i,
Cc1ccc(S(=O)(=O)N2Cc3ccccc3CC2C(=O)Nn2cnnc2)cc1 (configuration not stated),-14,2,-6,3,2,-4,-23,i,
CCOC(=O)c1sc2nc(C)nc(NCc3ccc(Cl)cc3)c2c1C,28,45,-7,-9,-16,2,-47,i,
Cc1oc(-c2ccc(Cl)cc2)nc1CS(=O)CC(=O)NC1CC1 (configuration not stated),-23,10,-8,-5,-3,8,-5,i,
N#CC1(c2ccccc2)CCCN1C(=O)c1ccc(Br)cc1 (configuration not stated),-8,-4,-7,1,2,-3,-8,i,
COc1ccc2nc(CNC(=O)C3CCC(=O)N(CCc4ccccc4)C3)[nH]c2c1 (configuration not stated),-12,2,8,0,2,-2,-32,i,
O=C(Nc1ccnn1C1CCN(Cc2ccc(F)cc2)CC1)C1CC1,nt,-13,2,-3,1,-4,-19,i,
O=C(NCC1OCCc2ccccc21)c1ccc(NC(=O)c2ccc(Cl)cc2Cl)cc1 (configuration not stated),5,19,-8,0,-3,-7,-15,i,
O=C1C=C(Nc2ccc(Cl)cc2)CC(c2ccco2)C1 (configuration not stated),-8,nt,86,4,1,-13,1,i,eIF4H FP inh retest=23;PABP FP inh retest=46
COc1ccc(C=O)cc1CSc1nnc(COc2cccc3cccnc23)o1,7,nt,6,4,5,-10,-11,i,
COc1ccc(CN2CC[C@H]3C=CC[C@@H](C(=O)N4CCOCC4)[C@H]3C2=O)cc1OC,-10,6,nt,3,3,nt,-11,i,
COc1ccccc1C(=O)NCCC(=O)N(C)CC(=O)Nc1ccc(C)cc1,-7,6,nt,-2,3,nt,8,i,
O=C(COC(=O)c1cc(-c2ccccn2)nc2ccccc12)Nc1ncc(C(F)(F)F)cc1Cl,3,-5,-11,1,1,5,-16,i,
CC(C)COc1ccc(/C(=N/O)c2ccccc2)cc1,3,nt,-14,4,-5,1,-26,i,
CC(=O)Nc1ccc(S(=O)(=O)N2CCC(C(=O)Nc3nccs3)CC2)cc1,-4,-5,71,6,5,8,3,i,eIF4H FP inh retest=-5;PABP FP inh retest=28
Cc1cc(C(=O)COC(=O)C2=NNC(=O)CC2)c(C)n1-c1cccc(C(F)(F)F)c1,-10,14,8,6,5,2,-1,i,
CCN(C(=O)COC(=O)c1cccc(S(=O)(=O)N(CC)CC)c1)C1CCS(=O)(=O)C1 (configuration not stated),-4,2,-11,-1,4,9,-11,nt,
COc1ccc(S(=O)(=O)Nc2cccc(F)c2)cc1C,4,-2,-6,-4,-1,3,nt,i,
CN1CCN(c2cc(-c3cc(O)c4ncccc4c3)ccn2)CC1,22,29,nt,5,3,nt,-36,nt,
CCOP(=O)(OCC)C(NC(=O)/C=C/c1ccc(OC)cc1)c1ccccc1 (configuration not stated),-12,8,-3,0,-4,-12,nt,i,
O=[N+]([O-])c1cccc(/C=C/c2ccncc2)c1,-3,-55,-13,1,0,4,nt,i,
Cc1cc(Nc2ccccc2)nc(N2CCOCC2)n1,-10,nt,-8,2,1,2,4,i,
C=CCn1c(-c2csc(-c3ccccc3)n2)n[nH]c1=S,-10,nt,-5,6,5,-6,-27,i,
Cn1c(C(=O)NCc2ccccn2)cc2c(=O)n3ccccc3nc21,4,nt,6,8,0,5,nt,i,
Cc1cccc(C)c1OCc1cc(C(=O)N(C)Cc2nc3ccccc3[nH]2)no1,-4,nt,-11,-16,-30,3,-22,i,
CCN(C(=O)/C=C/c1cc(OC)c(OC)c(OC)c1)C1CCCCC1,-24,4,-5,3,-3,4,18,i,
COc1ccc2c(c1)[nH]c1c(=O)n(CCN3CCOCC3)cnc12,-12,-39,10,-4,-1,-1,-8,i,
N#C/C(=C(/O)c1ccco1)c1nc2ccccc2[nH]1,-15,-18,-4,-2,2,-15,nt,i,
Cc1cc(NC(=O)Cn2nnc(-c3ccccc3N)n2)no1,-9,-24,4,4,4,122,nt,i,eIF4H FP inh retest=2;PABP FP inh retest=4
COc1ccc(/C=C(\C#N)C(=O)OCC(=O)NC(C)c2ccccc2)cc1 (configuration not stated),-6,10,-5,2,2,5,nt,i,
Cc1ccc(C=Nc2ccccc2C(=O)Nc2ccccc2)cc1,-15,12,-5,-9,-12,0,nt,i,
Cc1ccc(/C=C/c2nc3ccccc3c(=O)[nH]2)cc1,36,-160,-11,0,-2,-6,nt,i,
O=C(/C=C/c1ccc(Cl)cc1)Nc1ccccc1N1CCOCC1,2,-1,6,2,-1,-1,0,i,
COC(=O)c1sccc1NC(=O)CNC(=O)c1ccccc1,-8,-2,28,-1,-5,11,nt,i,
Cc1noc(COc2ccccc2OCC(N)=O)n1,-21,6,nt,3,1,nt,-12,i,
Cc1cc(C)n2nc(C(=O)NCc3cccc(C(F)(F)F)c3)nc2n1,-1,13,2,nt,nt,-4,nt,i,
COc1ccccc1NC(=O)CS(=O)(=O)c1cccc2nsnc12,-15,nt,1,1,-1,12,-17,i,
CCn1c(NC(C)=O)nc2ccccc21,-9,nt,-5,5,7,-12,nt,i,
Cc1c(NC(=O)CSc2nc(N)cc(N)n2)c(=O)n(-c2ccccc2)n1C,-13,-6,nt,-1,2,nt,-13,nt,
O=C(NC1CCCN(Cc2ccc(Cl)cc2)C1)c1ccccc1-c1ncc[nH]1 (configuration not stated),nt,7,-4,2,6,6,-14,i,
COc1ccc(-c2cc(C(=O)OCC(=O)NC3CC3)c3ccccc3n2)cc1OC,-18,0,nt,0,0,nt,nt,nt,
COCCN1C(=O)c2cc(C(=O)Nc3ccc(OC)c(OC)c3)ccc2C1Nc1ccc(OC)c(OC)c1 (configuration not stated),-1,41,8,1,5,11,nt,i,
COc1ccc(-c2ccc(/C=C(\NC(=O)c3ccccc3)C(=O)N3CCOCC3)o2)cc1,0,-7,-18,-7,-7,4,4,i,
Clc1ccc(Oc2nc3ccccc3n3cccc23)cc1,-8,nt,-5,3,7,0,-13,i,
CCc1nnc(NC(=O)CCn2cnc3ccccc3c2=O)s1,-3,5,10,2,0,-5,nt,i,
Cc1ccc(S(=O)(=O)CNC(=S)c2cccc(C)c2)cc1,12,-1,-6,1,2,3,-14,i,
CC(C)N1CCN(Cc2cc3ccccc3[nH]2)CC1CCO (configuration not stated),-10,-6,2,-3,1,-8,-17,i,
CC(NC(=O)c1ccccc1)c1nnc(SCc2nc3ccccc3c(=O)[nH]2)n1C (configuration not stated),-4,-13,-4,6,1,0,-3,i,

# Entries above containing a CF3 group:
SMILES,CSC inhib,Env fusion inh,eIF4H FP inh,MT1-MMP act inh,MT1-MMP act inh RFP,PABP FP inh,UUG fidelity,Rce1 inh,others
O=C(Nc1ccc(F)cc1)N1CCCN(c2nccc(C(F)(F)F)n2)CC1,-8,32,-1,3,-4,4,nt,i,
O=C(COC(=O)c1cc(-c2ccccn2)nc2ccccc12)Nc1ncc(C(F)(F)F)cc1Cl,3,-5,-11,1,1,5,-16,i,
Cc1cc(C(=O)COC(=O)C2=NNC(=O)CC2)c(C)n1-c1cccc(C(F)(F)F)c1,-10,14,8,6,5,2,-1,i,
Cc1cc(C)n2nc(C(=O)NCc3cccc(C(F)(F)F)c3)nc2n1,-1,13,2,nt,nt,-4,nt,i,

# (more compounds)
SMILES,CSC inhib,Env fusion inh,eIF4H FP inh,MT1-MMP act inh,MT1-MMP act inh RFP,PABP FP inh,UUG fidelity,Rce1 inh,others
O=C(CCC(=O)OCCOc1ccccc1)OCCOc1ccccc1,nt,-8,nt,0,3,nt,-18,nt,
Cc1cc(/C=N\NC(=O)COc2cccc3cccnc23)c(C)n1-c1ccccc1,6,-2,-8,4,4,-1,nt,i,
CCN1CCCC1CNCc1ccc(OCc2ccc(Cl)nc2)c(OC)c1 (configuration not stated),-6,-64,-5,5,0,16,nt,i,
Cn1c(N)c(C(=O)CN2CCc3ccccc3C2)c(=O)n(C)c1=O,nt,2,10,-1,6,16,-8,i,
O=C(CSCc1c(Cl)cccc1Cl)NCc1ccccn1,-1,12,-5,-6,-5,-1,nt,i,
Cc1ccc(-c2nnc(N3CCN(C(=O)CSc4ncn[nH]4)CC3)c3ccccc23)cc1,10,nt,4,-1,-1,2,-14,nt,
Nc1c(S(=O)(=O)c2ccccc2)c2nc3ccccc3nc2n1/N=C/c1cccc(O)c1,104*,nt,-2,-2,-8,10,-7,i,
CSC1=C(C#N)C(c2ccccc2)C(C(C)=O)=C(C)N1 (configuration not stated),-3,8,2,2,7,-6,nt,i,
